RGS16-Gao HTS: modulates binding between human RGS16 and Galphao; O15492+P09471; 220,000 tested, 0.38% active; binding response (% of control), % at 10 µM; bead-based flow cytometry RGS16-Galphao binding, fluorescence; actives lie on both sides;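 active = below 25% or above 175%, edge rows of some plates excepted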;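 note: Galphao activated by GDP with aluminum fluoride before binding; 100% = wells without compound and 0% = beads without RGS; some results beyond the cut were filed as inactive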
GALR2 ag: GALR2 (human) receptor agonism | AID 803 | O43603 | GALR2-expressing cells, agonist activation read-out | 140,000 tested, 0.48% active | activation, %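 (tested at 5 µM)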;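 active = above mean plus 3 SD of all compounds, about 5% in these data, not always enough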;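 note: 0% = vehicle buffer wells and 100% = reference agonist at full effect; tested in CHO reporter cells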
Insulin prom inh: TRM-6 insulin promoter activity inhibition. TRM-6 cells (human fetal islet line), insulin promoter-eGFP reporter, imaging; reporter expression induced with tamoxifen. inhibition, % at 2 µM. 130,000 tested, 0.9% active;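 active = inhibition above the mean plus 3 SD, with well images judged a real hit on visual review, cut at about 60% in these data, passing the limit was not always enough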
PKD1 inh: blocks activity of human protein kinase D1. 200,000 tested, 0.056% active. AID 797. inhibition, %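 (about 10 µM by stock and volumes)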. PKD1 kinase fluorescence polarization assay. Q15139;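 active = inhibition of 50% or more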;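 note: controls were vehicle for no effect and a reference inhibitor for full effect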
Target sequence (Q15139 whole entry, looked up): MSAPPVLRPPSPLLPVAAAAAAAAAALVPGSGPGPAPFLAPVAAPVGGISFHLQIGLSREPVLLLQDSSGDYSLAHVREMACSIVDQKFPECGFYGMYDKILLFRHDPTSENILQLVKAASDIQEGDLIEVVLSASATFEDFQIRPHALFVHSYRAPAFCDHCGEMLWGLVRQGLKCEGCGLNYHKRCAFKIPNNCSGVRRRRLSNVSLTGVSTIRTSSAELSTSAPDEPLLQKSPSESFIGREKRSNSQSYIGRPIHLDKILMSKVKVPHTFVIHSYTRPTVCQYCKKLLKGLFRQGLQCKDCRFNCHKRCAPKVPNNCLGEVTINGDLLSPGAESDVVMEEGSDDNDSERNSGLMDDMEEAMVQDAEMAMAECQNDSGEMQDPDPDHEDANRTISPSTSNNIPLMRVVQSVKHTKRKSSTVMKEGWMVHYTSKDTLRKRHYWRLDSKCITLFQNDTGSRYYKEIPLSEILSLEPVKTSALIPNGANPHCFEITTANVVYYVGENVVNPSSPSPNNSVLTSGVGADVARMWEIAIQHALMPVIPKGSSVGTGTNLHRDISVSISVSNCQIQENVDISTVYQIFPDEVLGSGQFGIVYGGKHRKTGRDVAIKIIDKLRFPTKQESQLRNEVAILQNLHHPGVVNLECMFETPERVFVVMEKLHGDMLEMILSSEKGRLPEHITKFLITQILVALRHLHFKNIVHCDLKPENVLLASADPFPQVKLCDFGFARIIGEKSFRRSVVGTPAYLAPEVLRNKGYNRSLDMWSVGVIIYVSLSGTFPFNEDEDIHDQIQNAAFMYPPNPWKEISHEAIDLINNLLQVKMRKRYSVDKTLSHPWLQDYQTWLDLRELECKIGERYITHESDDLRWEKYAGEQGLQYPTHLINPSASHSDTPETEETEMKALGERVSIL
HSV replic up: increases HSV replication in cells | maximum fold increase | HSV replication augmentation in cells, fold increase | 220,000 tested, 0.005% active;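 active = peak rise of 1.5-fold or more in the series; tested in PC3 cells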;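 note: first round at 10 µM; read as green reporter fluorescence; hits show the peak of a series up to 25 µM; 1 = signal of infected wells without compound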
Insulin prom inh cell count: second read-out of Insulin prom inh, no call of its own (marks repeat the call); normalized cell count, %; measured here: cell count, toxicity; reference of the scale not given here;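 cells exposed to compound for 48 h; stained nuclei by imaging scaled within each plate; lower means fewer cells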
HSV replic up primary fold: second read-out of HSV replic up, no call of its own (marks repeat the call); fold increase; compound at 10 µM; measured here: primary screen fold increase 10 uM; tested in PC3 cells;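 GFP signal in the first replicate; 1 = infected wells without compound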
Active calls of the source: *; i = inactive; / = not tested or not shown.

SMILES	RGS16-Gao HTS	GALR2 ag	Insulin prom inh	Insulin prom inh cell count	PKD1 inh	HSV replic up	HSV replic up primary fold
O=C(C1CCCCC1)N1CCN(S(=O)(=O)c2ccc(Cl)cc2)CC1	103	-0.6	/	/	4	i	1.2
CC(=O)c1cnc(Nc2nc(C)c3cc(C)c(C)cc3n2)nc1C	103	0.1	11	54	2	i	0.92
CCN(CC)CC(O)c1cccn1-c1ccc(CNC(=O)NC(C)C)cc1 (stereo not drawn)	99	/	/	/	2	i	1.1
Cc1ccccc1OCC(O)CN1CCCCC1 (stereo not drawn)	101	/	0	94	-5	i	0.97
O=c1[nH]oc2cc(Cl)ccc12	95	/	/	/	/	i	0.75
O=C(NC1CCCCC1)N1CCN(C(c2ccccc2)c2ccccc2)CC1	93	-2.3	-13	132	5	i	0.99
COc1ccc(C)cc1NC(=O)C(=O)NCc1ccncc1	103	-3.9	-10	111	2	i	0.89
COc1ccc(Nc2nc(Cl)nc(NCc3ccco3)n2)c(OC)c1	102	-3.6	/	/	3	i	0.93
Cc1cc2oc(C(=O)NCc3ccc4c(c3)OCO4)c(C)c2cc1C	106	-2.8	20	138	-7	i	0.87
CS(=O)(=O)N1CCN(C(=O)CCC2CCCC2)CC1	88	-2.7	35	99	8	i	1
Cc1ccccc1CC1S/C(=N/N=C/c2ccco2)NC1=O (stereo not drawn)	100	/	/	/	/	i	0.76
COc1ccc(CCNC(=O)C(C)Sc2ccccc2)cc1OC (stereo not drawn)	102	-1.8	3	104	-4	i	0.97
CCOC(=O)c1cc(C)n(CCc2ccccc2)c1C	99	-0.8	3	101	-10	i	0.97
Cc1cc(C)cc(NC(=S)N(Cc2ccc(Br)cc2)Cc2ccc(C(=O)O)cc2)c1	97	/	/	/	0	i	1
CCCN1CCN(CCCNC(=S)Nc2ccc(F)cc2)CC1	110	/	/	/	1	i	1.1
COc1ccc(NC(=O)CCCSc2ccccc2)cc1	102	/	/	/	-6	i	0.96
Cc1ccccc1OCC(=O)Nc1ccc(Cc2ccncc2)cc1	92	-0.1	49	121	-20	i	0.91
COc1ccc(CCNC(=O)COc2ncnc3cc([N+](=O)[O-])ccc23)cc1	101	1.0	/	/	0	i	1.2
Nc1ccc(C(=O)N/N=C/c2ccccc2)cc1	88	-1.6	18	115	-14	i	0.94
CC1=NOC(=O)/C1=C/c1ccc2c(c1)OCO2	105	/	17	138	-3	i	0.99

Complete entries from above. Values in the order: RGS16-Gao HTS	GALR2 ag	Insulin prom inh	Insulin prom inh cell count	PKD1 inh	HSV replic up	HSV replic up primary fold
Cc1ccccc1OCC(O)CN1CCCCC1 (stereo not drawn) reads 101	/	0	94	-5	i	0.97
COc1ccc(NC(=O)CCCSc2ccccc2)cc1 reads 102	/	/	/	-6	i	0.96
Cc1cc2oc(C(=O)NCc3ccc4c(c3)OCO4)c(C)c2cc1C reads 106	-2.8	20	138	-7	i	0.87
COc1ccc(CCNC(=O)COc2ncnc3cc([N+](=O)[O-])ccc23)cc1 reads 101	1.0	/	/	0	i	1.2
CC(=O)c1cnc(Nc2nc(C)c3cc(C)c(C)cc3n2)nc1C reads 103	0.1	11	54	2	i	0.92

(next part)
SMILES	RGS16-Gao HTS	GALR2 ag	Insulin prom inh	Insulin prom inh cell count	PKD1 inh	HSV replic up	HSV replic up primary fold
Cn1c(=O)c2c(nc(NCCCO)n2Cc2cccc(Br)c2)n(C)c1=O	100	2.1	-31	125	-2	i	0.9
Cc1ccc(Nc2c(-c3ccccc3)nc3cnccn23)cc1	96	/	/	/	-1	i	1.1
CC1(C)Cc2c(sc3nc(SCC(=O)O)[nH]c(=O)c23)CO1	99	-0.2	/	/	-4	i	0.95
N#Cc1ccc(CSc2nnc(COc3ccccc3)n2-c2ccccc2)cc1	103	-2.3	/	/	1	i	0.9
Cc1cccc(-c2cnn(-c3cccc([N+](=O)[O-])c3)c2N)c1	95	/	/	/	2	i	0.99
Cc1nn2c(N3CCN(C(=O)c4ccco4)CC3)cc(C(C)(C)C)nc2c1-c1ccc(Cl)cc1	100	-3.5	-59	119	6	i	0.9
COc1cccc2cc(C(=O)N3CCN(c4ccccn4)CC3)c(=O)oc12	94	-2.1	2	94	-1	i	0.96
Nc1nonc1C(=O)N/N=C/c1ccc(-c2cccc(C(=O)O)c2)o1	97	/	/	/	1	i	0.94
COc1ccc2nc(NC(=O)/C=C/c3ccc4c(c3)OCO4)sc2c1	100	-0.8	-7	111	3	i	1.1
Cc1ccc(C)c(S(=O)(=O)NCCOc2nc(NC(C)C)nc(NC(C)C)n2)c1	81	-2.8	15	104	0	i	0.91
Cc1cc2c(cc1C)C(c1cccc([N+](=O)[O-])c1)CC(=O)N2 (stereo not drawn)	105	0.3	-44	130	-5	i	0.94
O=C(O)c1ccc(CNCc2c(Cl)cccc2Cl)cc1	73	-3.4	46	77	-10	i	1.2
O=C(O)CCCCCNC(=O)c1ccc(Br)cc1	99	-2.3	23	68	-2	i	0.93
Cc1ccc(S(=O)(=O)NCc2nc3ccccc3c(=O)n2N)cc1	104	-3.2	-100	132	-1	i	0.97
Cc1cc(C)cc(Oc2ccccc2C=O)c1	88	-2.5	-12	105	-10	i	0.84
CCCCNC(=O)N1c2ccccc2CC1C (stereo not drawn)	105	/	-65	111	-2	i	0.98
CCOC(=O)c1[nH]c2ccc(OC)cc2c1NC(=O)C(C)N1CCSCC1 (stereo not drawn)	100	-0.7	-29	95	2	i	0.98
CCCOc1ccccc1NC(=O)/C=C/C(N)=O	94	0.7	65	65	0	i	0.87
Cc1nc2ccc(NC(=O)c3cccs3)cc2c(=O)n1Cc1ccc(Cl)cc1	80	-0.7	-17	64	-1	i	0.66
Cn1c(SCC(=O)Nc2cccc(Br)c2)nnc1-c1cc2ccccc2o1	102	0.2	18	114	3	i	0.88

A second format for some results above:
Order of values – RGS16-Gao HTS	GALR2 ag	Insulin prom inh	Insulin prom inh cell count	PKD1 inh	HSV replic up	HSV replic up primary fold
Cc1ccc(S(=O)(=O)NCc2nc3ccccc3c(=O)n2N)cc1
→ 104	-3.2	-100	132	-1	i	0.97
Cc1cc(C)cc(Oc2ccccc2C=O)c1
→ 88	-2.5	-12	105	-10	i	0.84
CCCCNC(=O)N1c2ccccc2CC1C (stereo not drawn)
→ 105	/	-65	111	-2	i	0.98
CCOC(=O)c1[nH]c2ccc(OC)cc2c1NC(=O)C(C)N1CCSCC1 (stereo not drawn)
→ 100	-0.7	-29	95	2	i	0.98

Additional entries.
SMILES	RGS16-Gao HTS	GALR2 ag	Insulin prom inh	Insulin prom inh cell count	PKD1 inh	HSV replic up	HSV replic up primary fold
CCOC(=O)Cn1c(=NC(=O)C2COc3ccccc3O2)sc2cc(S(N)(=O)=O)ccc21 (stereo not drawn)	105	0.5	-48	110	-10	i	0.84
CS(=O)(=O)c1ccc(C(=O)Nc2ccc(N3CCCC3)cc2)c(Cl)c1	97	/	/	/	2	i	0.84
O=C1CCCC2=C1C(c1ccco1)Nc1ccc(C(=O)c3ccccc3)cc1N2 (stereo not drawn)	99	-1.1	/	/	-15	i	1.2
Cc1ccc2c(c1)C(CCN)C(=O)N2Cc1ccccc1 (stereo not drawn)	110	0.1	-46	107	-3	i	0.82
O=c1cc(CN2CCN(S(=O)(=O)c3ccc4ccccc4c3)CC2)nc2sccn12	100	/	-71	70	12	i	1.1
COc1ccc(Br)cc1/C=N/n1c(C)nnc1C	101	0.3	22	183	-3	i	0.91
COC(=O)[C@@H](NC(=O)Nc1ccc(OC(F)(F)F)cc1)C(C)C	104	-0.3	/	/	1	i	0.77
CC1=NN(C(=O)COc2ccc(C)c(C)c2)C(O)(c2ccc(Cl)cc2)C1 (stereo not drawn)	104	-0.4	8	144	-9	i	0.94
O=C(CSc1nnc(C2COc3ccccc3O2)o1)N1CCCC1 (stereo not drawn)	97	/	/	/	-3	i	0.96
O=c1c2c3c(sc2ncn1/N=C/c1cccnc1)CCCC3	93	/	27	89	-2	i	0.77
COc1ccc(OCC(O)CNS(=O)(=O)c2cccc(Cl)c2)cc1 (stereo not drawn)	102	/	/	/	/	i	1.1
O=C(Nc1cccc(F)c1)c1ccc(S(=O)(=O)NCC2CCCO2)cc1 (stereo not drawn)	104	-3.3	/	/	1	i	0.82
CCOC(=O)c1nnn(-c2nonc2N)c1COc1ccc(F)cc1	102	-1.1	20	186	-1	i	1
Cc1ccsc1/C=N/NC(=O)C(N)=O	109	/	-14	210	-9	i	0.82
COc1cccc(C(=O)N[C@@H](CCSC)c2nc3ccccc3[nH]2)c1	101	/	-43	101	-5	i	0.98
O=C(NNC(=O)c1ccccc1C(=O)O)c1ccc(O)cc1	95	/	35	101	1	i	0.99
COc1ccc(CC(=O)NCc2nnc(SCC(=O)Nc3nccs3)n2-c2ccccc2)cc1	99	-2.5	/	/	9	i	0.94
COc1ccccc1N1CC(O)=C(c2nc3ccccc3c(=O)[nH]2)C1=N	98	-2.4	-23	88	2	i	0.82
S=c1[nH]nc(-c2ccncc2)n1/N=C/c1ccccc1Cl	107	/	/	/	/	i	1
O=C1C=C(NCCc2ccccc2)C2(CCCCC2)O1	106	/	/	/	5	i	1
CN1CCc2nc(NC(=O)c3cccc(S(=O)(=O)N4CCc5ccccc54)c3)sc2C1	96	-0.9	7	114	6	i	1
Cc1cc(=O)[nH]c2c1c(C)nn2C1CCCC1	104	0.3	-23	103	-4	i	1.1
COc1ccc(NC(=O)/C(=C\c2ccc(OS(=O)(=O)c3ccc(C)cc3)cc2)NC(=O)c2ccccc2)cc1	96	-1.4	36	57	-9	i	0.91
Cc1ccc(/C=C2\SC(N3CCCC3)=NC2=O)cc1	104	/	-5	113	-3	i	1.1
O=S(=O)(c1ccc(S(=O)(=O)N(Cc2ccco2)Cc2ccccc2Cl)cc1)N1CCCC1	91	0.1	21	92	-5	i	1
COc1ccc(C)cc1NC(=O)C1CCN(C(=O)Cc2ccccc2)CC1	116	/	-48	35	-8	i	0.77
COc1ccccc1C(=O)N/N=C1/NC(=O)CC(C(=O)Nc2ccccc2)S1 (stereo not drawn)	103	/	/	/	/	i	0.66
COC(=O)[C@H]1C[C@@H]1[C@H](NC(=O)c1cc(C)on1)c1ccccc1	104	-1.5	14	141	-1	i	0.86
Cn1cnnc1SCc1ccc(F)c2ccccc12	99	0.2	/	/	5	i	0.97
CC1CC1C(=O)OCC(=O)NCc1ccc(Cl)cc1Cl (stereo not drawn)	101	-1.3	46	101	-1	/	/
CC(=O)NC1C(=O)N=C(SCC(=O)Nc2sc3c(c2C#N)CCCCCC3)NC1=O (stereo not drawn)	110	/	14	85	-5	i	1.1
CC(C)CN(C(=O)CSc1nnnn1-c1ccccc1)c1c(N)n(CC(C)C)c(=O)[nH]c1=O	87	/	/	/	0	i	0.99
O=C(Nc1ccccc1)c1ccc[n+](Cc2ccc([N+](=O)[O-])cc2)c1	94	-1.3	-46	129	4	i	0.96
Cc1occc1-c1nnc(SCC(N)=O)o1	100	/	47	90	2	i	1.1
CSc1ncccc1C(=O)OCC(=O)N(C)C	92	/	-60	111	-3	i	0.97
CC(C)CCOP(=O)(c1ccc(N(C)C)cc1)C(O)c1ccccn1 (stereo not drawn)	101	-0.2	-36	75	-2	i	1.1
NS(=O)(=O)c1cccc(NC(=O)CSc2nc3nc(-c4cccs4)cc(C(F)(F)F)c3c(=O)[nH]2)c1	102	/	/	/	/	i	0.91
O=C(CS(=O)(=O)Cc1ccccc1)Nc1nnc(C2CCCCC2)s1	106	-3.9	0	83	6	i	0.88
O=C(COc1ccccc1)NCc1ccccc1	87	-1.9	-25	55	-7	/	/
COCc1cc(=O)[nH]c2cc(NC(=O)C(F)(F)F)c(C)cc12	94	-1.1	/	/	-8	i	0.68
NC(=O)C1CCN(C(=O)CSc2nc3ccccc3[nH]2)CC1	102	-2.1	18	105	-1	i	1
COc1cccc(-c2ncc3ccccn23)c1	68	-0.1	43	132	1	i	1.1
CN(CCc1cn[nH]c1)Cc1nc(Cc2ccccc2)no1	101	/	/	/	-5	i	1.1
O=C(CN1C(=O)/C(=C/c2cccc(Br)c2)SC1=S)N1CCCC1	92	-1.0	-121	153	-8	i	0.8
COc1ccc(S(=O)(=O)N2CCCN(S(=O)(=O)c3ccc(OC)cc3C)CC2)c(C)c1	114	-1.1	-74	70	5	i	0.92
CC(C)=C(NC(=O)c1ccccc1)C(=O)N/N=C(\C)c1ccccc1O	91	-2.5	/	/	3	i	1.1
CN1CCC(OC(=O)c2ccc(Br)cc2)CC1	/	-0.8	-53	88	0	i	0.79
O=C(NCC1CCCO1)c1ccccc1NC(=O)c1cccc2ccccc12 (stereo not drawn)	90	-5.5	-17	110	0	i	0.84
Cc1ccc(C(=O)c2ccccc2C(=O)O)s1	91	-2.3	3	140	-2	i	0.9
CCCOc1ccc(NCC(=O)Nc2ccc(C)cc2C)cc1	104	0.2	62	140	-12	i	0.94
CCOc1ccccc1N(CC(=O)Nc1cc(OC)ccc1OC)S(C)(=O)=O	105	-0.7	4	149	-5	i	1

Compounds as they come; about 1.2% have a hit in one of these screens.
